Screening results (PubChem BioAssay)
E coli growth – inhibitors of Escherichia coli growth; OD600, 23 h; stronger effect = lower value; OD600 absorbance (concentration not given with the values); hit rate 0.21% among 330,000;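 active = OD600 absorbance below the run mean of sample wells minus 3.6 SD, in any replicate, cut at about 0.56 in these data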;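 also: stock transfer was 300 nL into about 60 µL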
Beta2AR agonist – activates human beta-2 adrenergic receptor causing internalization; P07550; Am2.2-beta2AR cells, FAP receptor internalization, flow cytometry; reference of the scale not given here; response, % (test concentration not listed); hit rate 0.43% among 340,000; AID 504454;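 active = response above a set limit, near 3 SD of response in nonfluorescent compounds, cut at about 42% in these data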;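 also: stock transfer was 100 nL into about 11 µL; a reference agonist was the positive control; negative values mostly stem from fluorescent compounds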
HNF4A DNA FP – change in binding of human HNF4 alpha to DNA; hit rate 0.3% among 360,000; P41235; activity change, % at 10 µM; HNF4a-FITC DNA binding, fluorescence polarization, 1 h; in the data active = activity change above about 30%, passing the limit was not always enough;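 also: controls were the assay level and a saturating level of protein; the project sought stronger binding though the title names inhibitors; some compounds called inactive have numbers as strong as hits; positive values seem to mean higher polarization but the record does not say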
Target sequence (P41235 whole entry, looked up): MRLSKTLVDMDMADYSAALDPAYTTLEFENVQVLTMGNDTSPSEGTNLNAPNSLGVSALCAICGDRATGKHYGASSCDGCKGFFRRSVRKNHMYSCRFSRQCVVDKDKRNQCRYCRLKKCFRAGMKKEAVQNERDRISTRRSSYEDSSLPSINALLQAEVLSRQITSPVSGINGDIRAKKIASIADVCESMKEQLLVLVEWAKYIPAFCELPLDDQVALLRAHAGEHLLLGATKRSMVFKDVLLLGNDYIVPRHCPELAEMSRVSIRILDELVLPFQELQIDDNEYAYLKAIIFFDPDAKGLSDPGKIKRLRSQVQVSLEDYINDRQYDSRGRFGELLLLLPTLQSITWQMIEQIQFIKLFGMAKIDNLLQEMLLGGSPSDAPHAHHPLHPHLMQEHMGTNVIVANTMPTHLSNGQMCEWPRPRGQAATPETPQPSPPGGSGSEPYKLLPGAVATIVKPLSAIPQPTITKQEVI
FGF22 binding – FGF22 (human) thermal shift binding | Q9HCT0 | AID 651658 | hit rate 1.5% among 340,000 | calls only at 9.99 µM | recombinant FGF22 thermal shift, SYPRO orange fluorescence; percent of sucrose octasulfate shift, DMSO zero;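 active = melting point raised past a set limit in the mean and every replicate; three in four hits are not shown here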
Target sequence (Q9HCT0 whole entry, looked up): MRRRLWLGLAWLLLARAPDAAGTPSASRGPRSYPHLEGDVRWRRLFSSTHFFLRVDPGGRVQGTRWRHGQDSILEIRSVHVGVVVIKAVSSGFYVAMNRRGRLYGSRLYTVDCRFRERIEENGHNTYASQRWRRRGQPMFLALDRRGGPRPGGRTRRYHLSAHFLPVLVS
LANA-H2A inh – blocks KSHV LANA binding to histone H2A/H2B | hit rate 0.6% among 320,000 | inhibition, % (test concentration not listed) | cell-free LANA-H2A/H2B peptide, fluorescence polarization; in the data active = inhibition mostly above about 10%, no sharp cut-off; inactive = mostly below about 6.7%;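 also: stock transfer was 7.5 nL into about 10 µL; 0% = median of vehicle wells and 100% = median of positive control wells; one replicate is shown; the record names a cut of 25% in any replicate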
ALR H2O2 inh – inhibitors of human sulfhydryl oxidase ALR; hit rate 3.8% among 290,000; purified ALR, DTT oxidation, H2O2 HRP-luminol luminescence; inhibition, % (no concentration beside the values); P55789;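 active = mean and each replicate at 75% or more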;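 also: stock transfer was 7.5 nL into about 7.5 µL; 0% = neutral wells and 100% = wells with inactivated enzyme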
UCH37 DUB inh – inhibitors of human deubiquitinating enzyme UCH37. Q9Y5K5. purified proteasome/UCH37, Ub-AMC cleavage fluorescence. inhibition, % (no concentration beside the values). hit rate 0.33% among 330,000. AID 588478;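 active = mean of two replicates above 20%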;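 also: 0% = compound-free wells with enzyme and 100% = wells lacking proteasome; stock transfer was 100 nL into about 20 µL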
Target sequence (Q9Y5K5 whole entry, looked up): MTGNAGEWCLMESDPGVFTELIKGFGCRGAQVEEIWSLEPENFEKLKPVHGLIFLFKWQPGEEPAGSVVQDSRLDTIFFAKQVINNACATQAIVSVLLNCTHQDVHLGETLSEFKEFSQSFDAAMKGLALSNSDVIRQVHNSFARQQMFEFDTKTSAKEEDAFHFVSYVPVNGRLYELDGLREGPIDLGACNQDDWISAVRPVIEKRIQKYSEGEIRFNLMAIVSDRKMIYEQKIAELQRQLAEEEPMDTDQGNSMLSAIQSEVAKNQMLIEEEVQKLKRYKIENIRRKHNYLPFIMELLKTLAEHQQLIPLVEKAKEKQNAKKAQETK
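Material: human UCH37 enzyme supplied as purified proteasome complex / Amount: 0.15 nM proteasome as dispensed / Buffer or medium: pH 7.4 Tris-HCl (50 mM) with ovalbumin, ATP-MgCl2, DTT / Times: preincubation 30 min, reaction 25 min, room temperature / Technique: AMC fluorescence from Ub-AMC cleavage, excitation 355 nm, emission 460 nm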
Numbers without * were called inactive; i = inactive; · = not tested or not shown; & = joins results of further samples. A portion of the library, so the mix of outcomes need not match the whole.

The line under a structure holds: E coli growth | Beta2AR agonist | HNF4A DNA FP | FGF22 binding | LANA-H2A inh | ALR H2O2 inh | UCH37 DUB inh
CCC(=O)OC1(Cc2ccc(CC)cc2)CC(C)N(C)CC1C (stereo not given)
 : 0.69 | -3 | -3.1 | i | -9.0 | · | 6.5
NC1C2CN3CCN(C2)CC1(c1ccccc1)C3 (stereo not given)
 : 0.69 | -4 | 75* | i | 7.8 | -3 | 0.3
COc1ccc(N2CC2c2ccncc2)cc1 (stereo not given)
 : 0.65 | 5 | 2.3 | i | -0.3 | -7 | 0.3
Nc1c(C(=O)NCCCc2ccccc2)c2nc3ccccc3nc2n1Cc1cccs1
 : 0.74 | 9 | 4.2 | · | -2.9 | -13 | -462
O=C(O)C1Cc2ccccc2N2CCCC12 (stereo not given)
 : 0.67 | 15 | -3.9 | i | 2.7 | 92* | -3.6
COc1ccc(CC(=O)N2CCN(C)CC2)cc1OC
 : 0.67 | 7 | 2.0 | · | 2.1 | -9 | 0.4
CCOC(=O)c1ccccc1NC(=O)c1c(O)[nH]c(=S)[nH]c1=O
 : 0.67 | -2 | -0.2 | i | -0.6 | 92* | 3.6
NC(=O)Nc1cccc(C(F)(F)F)c1
 : 0.7 | -1 | 1.5 | · | -3.1 | -24 | -2.5
Nc1ccc2ccc3cccc[n+]3c2c1
 : · | -5 | -99 | i | 36* | -19 | ·
CN(C)C(=O)Oc1ccc(OCc2nc3ccccc3[nH]2)cc1
 : 0.63 | -6 | 0.0 | i | 3.4 | -2 | 0.8
COc1ccc(NP(=O)(Oc2ccc(Cl)cc2)Oc2ccc(Cl)cc2)cc1OC
 : 0.69 | 17 | -2.0 | · | 2.0 | -13 | 5.5
CN1CCN(Cc2ccccc2C(F)(F)F)CC1
 : 0.66 | -7 | -3.3 | · | 1.1 | 0 | 4.0
Cc1cccnc1-n1c(C)nc2ccccc2c1=O
 : 0.74 | 2 | 0.3 | · | 0.9 | -2 | -5.8
CCOCN(C(=O)CCl)c1c(C)cccc1CC
 : 0.69 | 6 | 1.8 | i | · | · | 4.6
C/C=C1/C[N+]2(C)CCC34C(=C(C=O)[C@H]1C[C@@H]32)Nc1ccccc14 (stereo not given in full)
 : · | -4 | 2.1 | i | -1.2 | -5 | -1.3
CNCC(O)c1cc(OCc2ccccc2)c(OCc2ccccc2)cc1F (stereo not given)
 : 0.65 | 36 | 3.0 | i | 3.8 | -14 | 2.4
NS(=O)(=O)c1ccc(N=Cc2c(O)n(C3CCCCC3)c(=O)n(C3CCCCC3)c2=O)cc1
 : 0.73 | 7 | 6.4 | · | -11 | -8 | -14
COC(=O)C1=C(c2ccc(S(C)(=O)=O)cc2)C[C@@H]2CC[C@H]1N2C(=O)N1CCCCC1
 : · | 13 | -1.5 | i | 1.8 | 2 | 1.8
COc1ccc(CCn2c(O)c(/C=N/N3CCOCC3)c(=O)[nH]c2=O)cc1OC
 : 0.69 | 3 | 3.5 | i | -1.3 | 30 | 2.3
Cc1nc2ccccc2c(=O)n1-c1cc([N+](=O)[O-])cc([N+](=O)[O-])c1
 : · | 12 | 2.4 | i | 2.1 | · | ·
Cn1cc(C(=O)OCC(=O)NC2CCCCC2)c2ccccc21
 : 0.69 | 1 | 3.0 | i | 5.6 | · | 3.8
C/C(=N\N1CCCCCC1)c1c(O)n(C2CCCCC2)c(=O)[nH]c1=O
 : 0.7 | -4 | 2.0 | i | -0.6 | 28 | 3.6
Cc1ccc(C(O)(c2ccc(C)c(C)c2)C2CN3CCC2CC3)cc1C (stereo not given)
 : 0.63 | 22 | -2.9 | i | 2.6 | -38 | 2.9
COC1=CC(=O)OC(CCc2ccc3c(c2)OCO3)C1 (stereo not given)
 : · | 21 | 1.8 | i | · | · | ·
CC(C)Sc1nnc([C@@H](N)Cc2ccccc2)o1
 : 0.66 | 5 | -0.9 | · | 13 | -3 | 0.2
COc1cccc(NC(=S)/C(=C(\[O-])c2ccc(OC(F)F)cc2)[n+]2ccccc2)c1
 : 0.68 | 15 | -1.0 | i | -2.6 | 48 | 9.7
O=[N+]([O-])c1c(Cl)c(Cl)c(Cl)c(Cl)c1Cl
 : · | 4 | -4.4 | i | · | · | ·
CC1OC(OC2C(O)CC(OC3C(O)CC(OC4CCC5(C)C(CCC6C5CCC5(C)C(C7=CC(=O)OC7)C(O)CC65O)C4)OC3C)OC2C)CC(O)C1O (stereo not given)
 : · | -5 | -4.2 | i | · | · | ·
CN1CCN(C(=O)COc2ccc(S(=O)(=O)NC3CCCCC3)cc2Cl)CC1
 : 0.69 | 0 | -2.1 | i | 5.1 | -9 | 0.7
C=CC1CN2CCC1CC2C(O)c1ccnc2ccccc12 (stereo not given)
 : 0.69&0.69 | 3 | 0.8 | i | · | · | ·
COC(=O)[C@]12OC[C@]34C([C@@H](O)[C@@H]1O)[C@]1(C)CC(=O)C(O)=C(C)[C@@H]1C[C@H]3OC(=O)[C@H](O)[C@@H]24 (stereo not given in full)
 : · | 42* | -1.7 | i | 1.1 | -8 | 1.4
C=C(C)CSc1nnc([C@@H](N)Cc2ccccc2)o1
 : 0.67 | 5 | 0.3 | i | 1.9 | -3 | 4.6
COc1ccc(-n2c(-c3ccccc3)nc3ccccc3c2=O)cc1
 : 0.7 | -9 | 0.1 | i | 0.7 | · | 4.3
COC(=O)C1=C(c2ccccc2OCc2ccccc2)C[C@@H]2CC[C@H]1N2C(=O)NCCc1ccc(F)cc1
 : · | 10 | -3.7 | i | 0.8 | -7 | 2.0
Cc1cc(Cl)ccc1OCC(=O)O
 : 0.65 | -1 | 3.2 | i | -12 | -1 | -1.3
O=C(COc1ccc2ccccc2c1)N1CCN(Cc2c[nH]c3ccccc23)CC1
 : 0.66 | 9 | -0.9 | · | -3.0 | 17 | 2.4
COc1ccc(C(C)=O)cc1CN1CC=C(c2ccccc2)CC1
 : 0.65 | -4 | 2.9 | · | 0.9 | -2 | 4.5
CC/C(=N\NC(=O)c1ccccc1O)c1c(O)n(Cc2ccccc2)c(=O)[nH]c1=O
 : 0.72 | -16 | 14 | · | -6.1 | · | 0.2
N#CSCC(=O)N1c2ccccc2CCc2ccccc21
 : 0.68 | 52* | 0.5 | · | 0.1 | 19 | 8.1
CCSc1nnc([C@@H](N)Cc2ccccc2)o1
 : 0.72 | 5 | 0.4 | · | -1.1 | -4 | 0.9
CC1CCCN(C(=O)CCl)C1 (stereo not given)
 : 0.73 | 2 | 2.1 | i | 3.2 | -6 | 4.7
C[C@]1(O)CC[C@H]2[C@@H]3CCC4=CC(=O)CC[C@]4(C)[C@@]3(F)[C@@H](O)C[C@@]21C
 : 0.7 | 4 | 0.5 | i | · | · | 1.0
O=C(NC1CN2CCC1CC2)c1ccc(-c2ccc([N+](=O)[O-])cc2)o1 (stereo not given)
 : 0.68 | -7 | 4.0 | · | 1.7 | -8 | 10
N#Cc1ccc(NC(=O)CN2C(=O)NC3(CCCC3)C2=O)cc1Cl
 : 0.71 | -2 | 1.9 | i | -2.6 | -3 | 2.5
CCOC(=O)/C(CCCN(CC)CC)=N\O
 : · | -3 | -4.4 | · | -0.8 | -3 | ·
COc1ccc(C(=O)O)cc1OC
 : · | 4 | 1.1 | i | · | · | ·
COc1cc(/C=C(/C)[N+](=O)[O-])ccc1OCc1ccccc1Cl
 : · | 48* | -1.3 | · | -1.1 | 3 | ·
CCN(CC)C(=O)COc1cc(C)cc2oc(=O)c3c(c12)CCCC3
 : 0.71 | -7 | -2.1 | i | 2.5 | -3 | -80
CC1CN(C)C(C)(C)CC1(O)c1ccccc1 (stereo not given)
 : 0.68 | -3 | 1.5 | i | -0.8 | -4 | 5.2
Cn1c(O)c(/C=C2\C=Nc3ccc(Br)cc32)c(=O)n(C)c1=O
 : · | -20 | 3.5 | i | 5.8 | 0 | ·

The list goes on, overlapping the part above by 2 compounds.
The line under a structure holds: E coli growth | Beta2AR agonist | HNF4A DNA FP | FGF22 binding | LANA-H2A inh | ALR H2O2 inh | UCH37 DUB inh
CC1CN(C)C(C)(C)CC1(O)c1ccccc1 (stereo not given)
 : 0.68 | -3 | 1.5 | i | -0.8 | -4 | 5.2
Cn1c(O)c(/C=C2\C=Nc3ccc(Br)cc32)c(=O)n(C)c1=O
 : · | -20 | 3.5 | i | 5.8 | 0 | ·
COC[C@]12CN(C)C3C4[C@H](OC)[C@H]1C3([C@@H](OC)C[C@H]2O)[C@@H]1C[C@@]2(O)[C@H](OC(=O)c3ccccc3)[C@@H]1[C@]4(OC(C)=O)[C@@H](O)[C@@H]2OC
 : · | · | 0.2 | · | 5.9 | -7 | ·
O=c1[nH]c(=S)n(-c2ccc(Br)cc2)c(O)c1C=Nc1ccc(N2CCOCC2)cc1
 : 0.66 | 16 | 6.7 | i | 0.1 | 4 | 5.7
C[N+](C)(C)Cc1ccccc1
 : 0.64 | -8 | 0.0 | i | 6.1 | -2 | 1.6
COC(=O)C1=C(c2ccc(F)cc2F)C[C@@H]2CC[C@H]1N2C(=O)N1CCCC1
 : · | 2 | -3.3 | i | 1.5 | 0 | -0.5
Cc1cc(C(=O)OCC(=O)Nc2ccccc2F)c(C)n1C1CC1
 : 0.65 | -1 | 1.9 | i | · | · | 1.7
CC1SC2(CN3CCC2CC3)NC1=O (stereo not given)
 : 0.69 | 9 | 0.0 | · | 2.6 | 3 | 1.9
Cc1ccc(/C=C2\C(=O)NC(=S)N(c3ccc(F)cc3)C2=O)s1
 : 0.68 | 39 | -2.7 | i | -469 | 15 | 1.4
COC(=O)C1=C(c2ccc(OC(F)(F)F)cc2)C[C@@H]2CC[C@H]1N2C(=O)NCCc1ccccc1
 : · | 5 | 1.1 | i | -4.3 | 3 | 6.6
COc1ccc2c(CN3CC=C(c4ccccc4)CC3)cc(=O)oc2c1
 : 0.72 | 5 | 4.2 | i | 0.3 | -14 | -24
O=C1C2CCN(CC2)[C@@H]1Cc1ccc2ccccc2c1O
 : · | 8 | 2.5 | · | 2.2 | 81* | 2.3
CC1CN(O)C2CCc3c(no[n+]3[O-])C12O (stereo not given)
 : 0.71 | -2 | 0.0 | · | -0.2 | 1 | 3.4
c1ccc2c3c([nH]c2c1)CNCC3
 : 0.72 | -204 | 0.9 | i | -4.5&7.8 | -4 | 0.7
COC(=O)C1=C(c2cccc(OC)c2OC)C[C@@H]2CC[C@H]1N2C(=O)NCCCOC(C)C
 : · | 1 | 2.1 | i | -7.8 | 4 | 0.6
COC(=O)C(O)(c1ccc(NC(=S)NC(=O)c2ccc(Cl)cc2Cl)cc1)C(F)(F)F (stereo not given)
 : 0.72 | 0 | 2.0 | i | -0.1 | 2 | 3.9
O=C1CCN(C(=O)CCCn2c(=O)oc3ccccc32)CC1
 : 0.71 | -1 | -0.9 | i | -0.4 | · | 0.0
Cc1cc(N(CCCl)CCCl)ccc1C=NNC(=O)Cc1cc(=O)oc2cc(O)ccc12
 : 0.69 | 21 | 0.2 | i | · | · | -201
COc1ccc(-c2nn(CCC#N)cc2C(=O)Nc2ccccc2)cc1OC
 : 0.68 | -3 | -2.4 | i | 1.1 | -8 | 0.1
CN(C)C1(CNC(=O)Cc2ccccc2F)CCCCC1
 : 0.71 | 17 | -2.5 | i | -1.9 | -25 | 0.8
Cc1nnc2ccc(-c3cccc(C(F)(F)F)c3)nn12
 : 0.66 | -15 | 0.4 | i | 0.3 | 1 | -14
CCOc1ccc(-c2cc(C)[n+](CCO)c(-c3ccc(OCC)cc3)c2)cc1
 : 0.68 | -1 | -1.3 | i | -5.2 | · | i
C[C@]12CCC3C(CC[C@H]4C[C@@H](O)CC[C@]34C)C1C[C@@H](O)C2=O (stereo not given in full)
 : · | · | -2.4 | i | 0.5 | 1 | ·
CCC1(C(=O)c2ccccc2)C2c3ccccc3OC(=O)C21C(C)=O (stereo not given)
 : 0.64 | -1 | -2.4 | i | -5.2 | 7 | 3.3
CC(N)Cc1ccccc1Sc1ccc(O)cc1 (stereo not given)
 : 0.73 | · | · | · | -0.9 | · | -7.1
